H5N1 antiviral = antiviral screen in MDCK cells, H5N1 avian flu; cytopathic effect, luminescence, 72 h; stronger effect = higher value; no value below 0 was filed and about half of the inactive calls have no number; reference of the scale not given here; inhibition, % at 50 µM; actives 0.07% (n = 96,000); AID 740; in the data active = inhibition above about 25%
Starred values were filed as active, the others as inactive; i = inactive. An excerpt; rates above refer to the full screens.

SMILES	H5N1 antiviral
CSc1ccc(C#N)cc1NC(=O)c1ccc(Cl)cc1Cl	i
CCC(=O)c1cc2c(cc1NC(=O)c1cccs1)OCCO2	i
COC(=O)Nc1snnc1C	i
CC(C)(C)OC(=O)N1CCCC1C(=O)O (stereo unspecified)	i
COc1ccccc1-n1cnc(N)c1C(C)=O	0.8
Cc1nc2ccc(NC(=S)NC(C)C)cc2nc1C	2.4
CCOC(=O)c1cnn(-c2ccc(C(C)C)cc2)c1NC(=O)C1CCC1	i
COc1cc(/C=N/NC(N)=S)ccc1OCC(=O)Nc1ccc(C)cc1	0.6
O=c1cccc2n1CC1CC2CN(S(=O)(=O)c2ccccc2)C1 (stereo unspecified)	0.7
CCn1c(=O)c(C(C)=O)nc2ccccc21	i
Cc1c(NC(=O)Nc2ccc(Cl)cc2)c(=O)n(-c2ccccc2)n1C	i
COc1ccc(Nc2ncc(C(=O)O)c3ccccc23)cc1	0.5
Cc1ccc(N(C(=O)CCC(=O)Nc2cc(C)on2)C(C(=O)NC2CCCC2)c2cccs2)cc1 (stereo unspecified)	i
Cc1ccc([N+](=O)[O-])cc1N/C=C/C(=O)c1ccco1	i
Cc1ccc2[nH]c(=O)c(-c3nc4ccccn4c3NCc3ccco3)cc2c1	i
C=C1N2CCC(CC2)C1(O)c1ccccc1C (stereo unspecified)	i
Cc1ccc(SCc2[nH]nc3c2C(c2ccco2)C(C#N)=C(N)O3)cc1 (stereo unspecified)	i
COC(=O)C1=C(C)N(C)C(C)=C(C(=O)OC)C1c1ccccn1	0.8
Cc1ccc(C)c(NC(=O)Cn2nc(C(F)(F)F)cc2C2CC2)c1	i
Cc1ncc2c(c1OC(=O)c1ccc([N+](=O)[O-])cc1)COC(C)(C)OC2	i
CCOc1ccc(-c2n[nH]c(C)c2Oc2ccc(OC)cc2)c(O)c1	1.7
C[C@H]1CCC[C@H](O)CCCCCc2cc(O)cc(O)c2C(=O)O1	i
Cc1ccc(N2CC(C(=O)Nc3ccc(N(C)C)cc3)CC2=O)cc1C (stereo unspecified)	i
O=C(Cc1ccccc1)N/N=C/c1cc(Br)c(Br)o1	i
CC(=O)c1ccc(NC(=O)CN2C(=O)COc3ccc(Cl)cc32)cc1	i

Grouped by structure: the entries above with nitrogen in an aromatic ring (15)
SMILES	H5N1 antiviral
COC(=O)Nc1snnc1C	i
COc1ccccc1-n1cnc(N)c1C(C)=O	0.8
Cc1nc2ccc(NC(=S)NC(C)C)cc2nc1C	2.4
CCOC(=O)c1cnn(-c2ccc(C(C)C)cc2)c1NC(=O)C1CCC1	i
O=c1cccc2n1CC1CC2CN(S(=O)(=O)c2ccccc2)C1 (stereo unspecified)	0.7
CCn1c(=O)c(C(C)=O)nc2ccccc21	i
Cc1c(NC(=O)Nc2ccc(Cl)cc2)c(=O)n(-c2ccccc2)n1C	i
COc1ccc(Nc2ncc(C(=O)O)c3ccccc23)cc1	0.5
Cc1ccc(N(C(=O)CCC(=O)Nc2cc(C)on2)C(C(=O)NC2CCCC2)c2cccs2)cc1 (stereo unspecified)	i
Cc1ccc2[nH]c(=O)c(-c3nc4ccccn4c3NCc3ccco3)cc2c1	i
Cc1ccc(SCc2[nH]nc3c2C(c2ccco2)C(C#N)=C(N)O3)cc1 (stereo unspecified)	i
COC(=O)C1=C(C)N(C)C(C)=C(C(=O)OC)C1c1ccccn1	0.8
Cc1ccc(C)c(NC(=O)Cn2nc(C(F)(F)F)cc2C2CC2)c1	i
Cc1ncc2c(c1OC(=O)c1ccc([N+](=O)[O-])cc1)COC(C)(C)OC2	i
CCOc1ccc(-c2n[nH]c(C)c2Oc2ccc(OC)cc2)c(O)c1	1.7

Further results:
SMILES	H5N1 antiviral
COCc1[nH]nc2c1C(c1ccsc1)C(C#N)=C(N)O2 (stereo unspecified)	i
Oc1ccc(Br)cc1CNn1cnnc1	2.3
Nc1cc(=O)[nH]c(SC/C=C/c2ccccc2)n1	i
COc1cc(NC(=O)CCc2nc(-c3cccs3)no2)cc(OC)c1OC	0.1
Cc1c(C)n(CC(O)CN2CCCCCC2)c2ccccc12 (stereo unspecified)	i
Cc1cc(-c2ccc(Cl)cc2)c(C#N)c(N)n1	i
C=CCn1c(SCC(=O)c2c(N)n(C)c(=O)n(C)c2=O)nc2sc(CC)cc2c1=O	0.5
Cc1sc2ncnc(OCC(=O)N3CCN(S(=O)(=O)c4ccc(Cl)cc4)CC3)c2c1C	9.6
Cc1nc(=O)cc(-c2ccccc2)n1-c1ccccc1	0.3
CC1CCCCN1S(=O)(=O)c1ccc(S(=O)(=O)N2CCN(c3ccc(F)cc3)CC2)cc1 (stereo unspecified)	1.6
CC(Sc1nnnn1C)C(=O)Nc1ccc(Oc2ccccc2)cc1 (stereo unspecified)	i
CCN(CC)P1(=O)OC(c2cc(OC)c(OC)c(OC)c2)=Nc2c1c(C)nn2-c1ccccc1 (stereo unspecified)	i
O=C(COC(=O)C1COc2ccccc2O1)NC(=O)NC1CCCCC1 (stereo unspecified)	i
Cc1ccccc1C(=O)c1c[nH]c(C(N)=O)c1	0.4
CCP(=O)(CC)C(C)(C)CP(=O)(c1ccccc1)c1ccccc1	0.2
O=C(CN(CCN1CCOCC1)C(=O)Cn1nnc(-c2ccc(F)cc2)n1)NC1CCCCC1	i
Fc1ccc2c(c1)C(c1ccncc1)=NNC(c1ccc(Cl)cc1)=N2	0.5
CCOC(=O)c1[nH]c2ccc(OC)cc2c1NS(=O)(=O)c1ccc(OC)cc1OC	i
CCOc1ccc(S(=O)(=O)Nc2cc(Sc3ncn[nH]3)c3oc(=O)sc3c2)cc1	0.4
O=c1[nH][nH]c(C(F)(F)F)c1C=NCc1ccc(Cl)cc1	0.4
Cc1nn(-c2ccccc2)c(Oc2ccc(F)cc2)c1/C=N/n1cnnc1	0.9
Cc1cc(C)n(-c2ccc(C(=O)Oc3ccc4c(c3)OCO4)cc2)n1	i
C=CCNC(=O)C12CC3(C)CC(C)(CC(C)(C3)C1)C2	0.4
COc1cc2c(=O)n(CCCN3CCOCC3)c(=S)[nH]c2c(OC)c1OC	0.4
COc1cc2c(cc1OC)C(C(=O)Nc1ccc3c(c1)OCCO3)C(c1cccnc1)N(C)C2=O (stereo unspecified)	i
Carrying on:
SMILES	H5N1 antiviral
O=C1OCC(Cn2c3ccccc3c3ccccc32)O1 (stereo unspecified)	i
CCOC(=O)N1CCN(Cc2cc(=O)oc3ccc(Cl)cc23)CC1	i
Cc1cc(C)cc(-n2c(C)cc(C=C(C#N)C#N)c2C)c1	0.7
Cc1onc(-c2ccccc2Cl)c1C(=O)N1CCN(c2nc3ccccc3s2)CC1	4.3
COc1ccc(CC(=O)Nc2c3c(nn2-c2cccc(C)c2C)CS(=O)C3)cc1 (stereo unspecified)	0.0
C=CCn1c(C)cc(C(=O)CSc2nnc(NC(C)C)s2)c1C	2.2
COc1ccc2sc(NC(C)=O)nc2c1	1.3
COc1ccc(C(=O)Cn2c(Br)nc3c2c(=O)n(C)c(=O)n3C)cc1	1.9
O=C(O)c1ccc(CNC(=O)c2ccc(Br)o2)cc1	0.3
COCCOc1nc2ccccc2nc1C	0.2
O=C(CSc1cccc(C(F)(F)F)c1)NC(=O)NCc1ccco1	i
O=C(CCN1CCOCC1)c1ccccc1	0.5
Cc1cc(=O)[nH]c(SCc2cc(Cl)ccc2OC(F)F)n1	i
CCNC(=O)c1nc[nH]c1C(=O)NCC	0.3
Cn1c(N)c(C(=O)c2cc(-c3ccccn3)nc3ccccc23)c(=O)[nH]c1=O	i
c1ccn2c(SCc3ccc4c(c3)OCO4)nnc2c1	i
CN(C)c1nc(OCCNC(=O)COc2ccc(Cl)cc2Cl)nc(N2CCCCC2)n1	i
O=C(O)c1cccc(S(=O)(=O)N2CCSCC2)c1	0.8
CC(C)(C)N(NC(=O)c1ccccc1)C(=O)c1ccccc1	1.4
Cc1nc2ccc(S(=O)(=O)NCC(=O)N3CCN(c4ccccc4)CC3)cc2s1	5.5
Cc1nn(CC(=O)O)c(C)c1Cl	0.3
O=C(CN1CCOCC1)Nc1nc(-c2ccc3c(c2)CCN3S(=O)(=O)c2ccccc2)cs1	i
Fc1ccc(-c2nc3ccncc3[nH]2)cc1	i
COc1ccc2c(c1)C1(Nc3ccccc3C(=O)N1c1ccccc1)C(=O)N2 (stereo unspecified)	i
CC(C)n1nnnc1SCC(=O)N1CCOCC1	i
(continued)
SMILES	H5N1 antiviral
COc1ccccc1-n1c(SC)nc(O)cc1=O	1.6
CCCCCCn1c(-c2ccco2)nc2oc3cc(OC)ccc3c(=O)c2c1=O	6.6
O=C(O)CCCC(=O)Nc1ccn(-c2ccccc2)n1	i
COC(=O)c1ccc(COC(=O)c2ccc(-n3cnnn3)cc2)o1	0.3
COc1cccc(-c2nnc(SCC(=O)OC(C)C)n2Cc2ccco2)c1	i
C=CCOc1c(Br)cc(CNn2nnnc2N)cc1OC	0.9
COc1cc2c(cc1OC)CN(C(=O)c1cc(=O)c3ccccc3o1)CC2	i
CCN1CCN(C(=O)CN(c2ccc(C)cc2)S(C)(=O)=O)CC1	i
Cc1ccc(C)c(NC(=O)CN2C(=O)CNC2=O)c1	i
CCc1cccc(C)c1NC(=O)C1=C(C(=O)O)CCCC1	i
O=C(Nc1ccccc1C(=O)NCc1ccco1)c1ccco1	2.5
O=S(=O)(c1ccc(F)cc1)N1CN(Cc2ccco2)c2nc3ccccc3nc21	3.1
O=C(CSc1ncnc2ccccc12)Nc1ccc(N2CCOCC2)cc1	i
S=C(NCCC(c1ccccc1)c1ccccc1)Nc1cccc(Cl)c1	i
C(=N\N1CCN(Cc2cccc3ccccc23)CC1)/c1cccnc1	i
Cc1ccc2nc3c(cc2c1)c(NC(=O)c1cccnc1)nn3C	0.3
CCOC(=O)/C(C(=O)Nc1ccccc1Cl)=C1/NC(C)(C)Cc2ccccc21	1.4
CCOC(=O)N1CCN(C(=O)CSc2nnc(-c3cccs3)o2)CC1	i
O=C(Cn1c(=O)n(-c2cccc(Cl)c2)c(=O)n1CC(=O)N1CCCCC1)N1CCCCC1	1.5
CCOC(=O)c1c(C)nc2c(C)cccn12	0.3
CC1CCC/C(=N\NC(=S)NCc2ccccc2)C1 (stereo unspecified)	i
CCCOc1ccc(C(=O)NC(C)C(=O)O)cc1 (stereo unspecified)	i
Cc1cc(-c2ccccc2)nc(N2CCC(C(=O)NC(C)C)CC2)n1	i
CCNC(=O)c1c(NC(C)=O)sc2c1CCCC2	0.2
CCN(CC)C(=O)CN(c1ccc(Cl)cc1)S(=O)(=O)c1ccccc1	1.5
Additional compounds:
SMILES	H5N1 antiviral
Clc1ccccc1-c1nc(N/N=C/c2cccnc2)c2ccccc2n1	i
COc1ccc(-n2c(C)c([N+](=O)[O-])c3ccc(O)c(CN4CCCCC4)c32)cc1	0.8
Cc1cc(C)c2nc(C(F)(F)F)nc(NCCCN3CCOCC3)c2c1	i
O=C(Nc1nnc(C(F)(F)F)s1)C1COc2ccccc2O1 (stereo unspecified)	i
O=C(Nc1ccc(Cc2ccncc2)cc1)C1CCC(N2C(=O)C3C4C=CC(C5CC45)C3C2=O)CC1 (stereo unspecified)	i
c1ccc(Cn2nnnc2C(c2cccnc2)N2CCN(c3ccccc3)CC2)cc1 (stereo unspecified)	14
O=c1cc(-c2ccccc2)nc(SCc2ccccc2)[nH]1	1.5
Cc1cc(=O)[nH]c(SCCCOc2ccc3c(c2)CCC3)n1	i
COC(=O)c1cn(C(C)C(=O)NCc2ccco2)c2ccccc12 (stereo unspecified)	i
Cc1cc(C)nc(N2CCCC(C(=O)NCCc3ccccc3F)C2)n1 (stereo unspecified)	0.1
COc1ccc(NC(=O)c2ccc(S(=O)(=O)N3CCOCC3)cc2)c(OC)c1	0.7
Cc1ccc(S(=O)(=O)N2CCCC(C(=O)N3CCC4(CC3)OCCO4)C2)cc1 (stereo unspecified)	0.8
Cn1c(Cc2cccc3ccccc23)nnc1SCC(=O)N1CCN(c2ccccc2)CC1	i
Cc1cc(C)c2nc(N3CCC(C(=O)N4CCN(c5ncccn5)CC4)CC3)sc2c1	i
Cc1ccc(OCCOCCn2ccnc2)c(Br)c1	2.7
CS(=O)(=O)N(CC(=O)NCc1cccnc1)Cc1ccc(Cl)cc1	0.6
Cc1ccccc1NC(=O)c1cc(S(=O)(=O)N2CCOCC2)ccc1F	0.4
Cc1ccc(S(=O)(=O)NCCCC(=O)C=[N+]=[N-])cc1	i
Cc1cccc(NC(=O)CCN2C(=O)C3C4CCC(C4)C3C2=O)c1C (stereo unspecified)	i
COc1cc(CNCCCN2CCOCC2)ccc1OCC(=O)Nc1cccc(C(F)(F)F)c1	i
OCCNCCCCCOc1ccc(F)cc1	i
CCCC(=O)c1c(NC)cc(C)oc1=O	i
COCCCNCC(=O)c1c(N)n(Cc2ccccc2)c(=O)n(C)c1=O	i
O=C1c2sc3nc4c(c(=O)n3c2C(=O)N1c1ccccc1)CCC4	i
Cc1ccc(-n2ncc(N(C)C)c(Cl)c2=O)cc1	i
(list continues)
SMILES	H5N1 antiviral
Cc1c2cnn(CC(=O)N3CCC4(CC3)OCCO4)c(=O)c2c(C)n1Cc1ccc(F)cc1	1.0
COCc1nnc(NC(=O)CSc2ccccc2)s1	i
CCOC(=O)C1CCCN(c2c(NCCCN(C)c3ccccc3)c(=O)c2=O)C1 (stereo unspecified)	1.9
Cc1nc2ccccn2c1/C(O)=C1\C(=O)C(=O)N(CCN2CCOCC2)C1c1cccnc1 (stereo unspecified)	1.0
Cc1ccc(-n2c(C)cc(C(=O)CSc3n[nH]c(N)n3)c2C)cc1	0.7
Cc1ccc(SCCC(=O)N2CCC(C(N)=O)CC2)cc1	i
N#Cc1cccc(NC(=O)CN2NS(=O)(=O)c3ccccc3C2=O)c1	0.8
N#CC(c1ccccc1)c1ccc(C(=O)c2ccc(F)cc2)cc1 (stereo unspecified)	i
Cc1cc2ccccc2n1CCNC(=O)c1ccc(S(=O)(=O)N2CCOCC2)cc1	i
C=CCNC(=O)c1cc(Cl)ccc1Cl	i
Cc1csc(NC(=O)c2cccc(S(=O)(=O)N3CCCCC3)c2)n1	2.2
CCc1ccc(NC(=O)CSc2nnc(SCC(=O)Nc3ccc(CC)cc3)n2N)cc1	0.8
CC(C)n1c(SCC(=O)N2c3ccccc3Sc3ccccc32)nc2c1c(=O)n(C)c(=O)n2C	i

Gathered by group: those above with a tert-butyl group.
SMILES	H5N1 antiviral
CC(C)(C)OC(=O)N1CCCC1C(=O)O (stereo unspecified)	i
CC(C)(C)N(NC(=O)c1ccccc1)C(=O)c1ccccc1	1.4
